Tg IFNy HTS – inhibitors of Toxoplasma gondii growth with IFN-gamma | Toxoplasma gondii growth in IFN-gamma-treated host cells; hits give low values; reference of the scale not given here | activity change, negative = inhibition, %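 (about 20 µM by stock and volumes)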 | AID 1259416 | 3.8% of 69,000 active;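 active = below -70%; inconclusive = fit judged invalid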;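 also: host cells are HeLa cells infected with Toxoplasma gondii; parasite growth read as luciferase light; one replicate is shown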
* hit, by the source's call; i = inactive; ? = inconclusive; & = joins results of further samples. These rows are one share of the data; count on the stated rates, not on these rows.

Start of the data: the first three records (preview)
SMILES | Tg IFNy HTS
CC(=O)N1[C@H](CO)[C@H](c2ccccc2)[C@@H]1CNC(=O)CN1CCOCC1 | -8
CCn1c(C2CCCN(Cc3cccn3-c3ccccn3)C2)n[nH]c1=O (stereo not given) | 13
Cc1ccc(N(Cc2cc(=O)[nH]c3ccccc23)C(=O)C2CCCCC2)cc1 | 19

The listing, from the first entry:
SMILES | Tg IFNy HTS
CC(=O)N1[C@H](CO)[C@H](c2ccccc2)[C@@H]1CNC(=O)CN1CCOCC1 | -8
CCn1c(C2CCCN(Cc3cccn3-c3ccccn3)C2)n[nH]c1=O (stereo not given) | 13
Cc1ccc(N(Cc2cc(=O)[nH]c3ccccc23)C(=O)C2CCCCC2)cc1 | 19
C=CCN1CC(c2nc3ccccc3n2Cc2cccc(Cl)c2)CC1=O (stereo not given) | 0
COc1ccccc1CNc1ccc2c(c1)nc(C)n2Cc1ccccc1 | ?
COc1ccc(N2CCN(c3nc(-c4ccc(Cl)cc4)nc4ccccc34)CC2)cc1 | 186
Cc1oc(-c2ccc(C(=O)NC3CCCCCC3)cc2)nc1CN1CCc2ccccc21 | -93*
Cn1c(=O)c(CN(Cc2ccsc2)Cc2ccco2)cc2ccccc21 | -1
Cn1nnc2c1C(COCCN1CCCC1)CN(S(C)(=O)=O)C2 (stereo not given) | -36
CCN1CCc2onc(CNc3ncccn3)c2C1 | -21
COc1ccccc1C(=O)N1CCC2(CC1)Nc1ccccc1-n1cccc12 | 15
Cc1cccc(-c2nc(Cn3nnc(-c4nc(-c5cccc(Cl)c5)no4)c3C)c(C)o2)c1 | 4
CC(C)NC(=O)N1CCC(c2nnc3ccc(C(=O)NCCc4ccncc4)cn23)C1 (stereo not given) | -1
CC(=O)N1C[C@H](NC(=O)C2CC2)C2OCCCC21 (stereo not given in full) | 10
CC(C)n1ccc(-c2cc(C(=O)NCCc3cccnc3)c3ccccn23)n1 | -15
CN1C(=O)c2cc(NC(=O)c3cnccn3)ccc2OC[C@@H]2O[C@H](CC(=O)NCC3CCCCC3)CC[C@@H]21 | -19
CCOC(=O)N1CCC2(CC1)OC(=O)C(C)=C2C(=O)NCc1ccc(OC)c(OC)c1 | -9
O=C(NCCc1csc(-c2ccccc2)n1)C1CCN(S(=O)(=O)c2ccc(Cl)cc2)CC1 | -42
O=C1C2CC=C(Cl)CC2C(=O)N1CCc1c[nH]c2ccccc12 (stereo not given) | 44
COc1ccc(CC(=O)N2CCC3(CC2)CC(OC)C3)cc1 | i
O=C(OCCN1CCCC1)C1(c2ccccc2)CCCC1 | 5&6
Cc1cccc2c(CC(C)NC(=O)c3cccc(Cn4cccn4)c3)c[nH]c12 (stereo not given) | 22
C[C@H](CO)N1C[C@H](C)[C@H](CN(C)S(=O)(=O)c2cn(C)cn2)OCCCC[C@H](C)Oc2ccc(N(C)C)cc2C1=O | 25
CS(=O)(=O)N1CCCn2c(nnc2Cn2cccn2)C1 | 3
CCN1C[C@@H](C)[C@H](OC)CN(C)C(=O)c2cc(NC(=O)c3ccno3)ccc2OC[C@H]1C | -22

SMILES | Tg IFNy HTS
COc1ccc2c3c([nH]c2c1)[C@H](CO)N(C(=O)Nc1ccc(F)cc1)CC31CCN(S(=O)(=O)c2cn(C)cn2)CC1 | 7
N#Cc1cccc(-c2ccc3c(c2)[C@H]2[C@H](CCN2Cc2ccc4c(c2)OCO4)[C@H](CO)N3)c1 | -41
O=C1NC(=O)C(CCCc2ccccc2)(C2CCNCC2)N1 (stereo not given) | -3
Cc1cccc(S(=O)(=O)N2CC(C(=O)N3CCCC3)C3(CCOCC3)C2)c1 (stereo not given) | -15
COc1ccc(NC(=O)N2[C@@H]3CNC[C@H]2C3c2ccc(/C=C/c3ccccc3)cc2)cc1 (stereo not given in full) | -3&46
O=C(C1CC1)N1C[C@@H]2[C@H](c3ccccc31)[C@H](CO)N2C(=O)c1ccccc1 | -5
c1cncc(CN(Cc2ccsc2)Cc2cccc3c2OCO3)c1 | 2
CCNC(=O)c1cccc(-c2ccccc2CO)c1 | -44
CCn1c(C2CCN(C(=O)c3csc(SC)n3)CC2)nn(C)c1=O | 64
Cc1cccc(C)c1OC1CN(c2ccnc(C(=O)N3CCOCC3)c2)C1 | -2
CC(=O)N1CCC(C(=O)NCCc2csc(C(C)C)n2)CC1 | -10
Cc1cccc(-c2nc(Cn3nnc(-c4nc(-c5ccc(C(F)(F)F)cc5)no4)c3C)c(C)o2)c1 | -4
O=C(c1c[nH]c2ccccc12)N1CCC(c2nc(-c3ccccc3)no2)C1 (stereo not given) | 108
C[C@@H]1CN([C@H](C)CO)C(=O)c2cc(NS(=O)(=O)c3ccccc3)ccc2O[C@@H](C)CCCCO[C@@H]1CN(C)C(=O)C1CCCCC1 | ?
O=C(NCc1cccc(Cl)c1)c1ccc2c(c1)CCC(=O)N2Cc1ccccc1 | -100*
O=C(O)c1cc(Br)cc(S(=O)(=O)NCc2cccnc2)c1 | 1
Cc1ccc(Nc2nc(C(=O)N(C)Cc3ccccc3)nc3ccccc23)cc1 | -77*
COc1cccc(NC(=O)CN2CCC3(CC2)N=C(c2cccc(Cl)c2)C(=O)N3)c1 | -22
Cc1ccc(S(=O)(=O)Nc2cccc3c2O[C@H](CN(C)C(=O)Nc2ccc(C(F)(F)F)cc2)[C@@H](C)CN([C@H](C)CO)C3=O)cc1 | 49
O=C(NC1CCC1)[C@H]1C[C@@H]2CN(C(=O)Nc3ccccc3)C[C@H]1O2 | -4
Cc1ccc(C2(O)CCN(C(=O)CC3C=CS(=O)(=O)C3)CC2)nc1 (stereo not given) | 6
CC1CN(C(=O)N(C)C)CCN1C(=O)N(C)C (stereo not given) | -32
CC(C)C(=O)NCCc1csc(-c2cccc(F)c2)n1 | 82
Cn1cc(N2CC3(CCN(C(=O)c4ccc[nH]4)C3)CC2=O)cn1 (stereo not given) | -4
Cc1cccc(C)c1NC1=NC(C)(CO)CS1 (stereo not given) | 25

canonical_smiles,Tg IFNy HTS
CCc1ncc(C(=O)N2CCc3nnc(CCc4ccccc4)n3CC2)cn1,7
CC(C)Nc1ccnc(C2COCCN2C(=O)CS(C)(=O)=O)n1 (stereo not given),0
CC(C)c1nnsc1CNC(=O)c1cccc(C#CC(C)(C)O)c1,-64
O=C(Cc1ccco1)N1C[C@H]2COC[C@@]2(COc2ncccc2F)C1,-37
CN(C)C(=O)N1C[C@@H]2[C@H](C1)c1ccccc1[C@@H]2N1CCOCC1,52
COc1ccc(OC)c(Nc2nc(-c3nnc(-c4ccc(Cl)cc4)o3)nc3ccccc23)c1,41
Cc1[nH]cnc1CN(C)CCCc1cnn(C)c1,-36
Cc1cc(C)n(C)c(=O)c1C(=O)N1CCC(Cc2cccc(C(=O)O)c2)C1 (stereo not given),-1
COc1ccc2c3c(n(C)c2c1)[C@@H](CO)NCC31CN(Cc2ccccc2Cl)C1,-47
OCc1ccc(-c2ccc(-c3ccc(CO)s3)o2)s1,-59&22
COc1ccc(C(=O)c2ccc(O)cc2)c(O)c1O,0
COc1coc(C(=O)Nc2cnc3n2CCCC3)cc1=O,0
Cn1cc(C(=O)[C@@H]2CCc3nc[nH]c3C2)c2ccccc21,9
CCCn1cc(CN2CCN(Cc3cccc(Cl)c3)CC2)c(C)n1,-9
O=C(c1cccnc1-c1cnc2ccccc2c1)N1C[C@H]2CC[C@@H]1C2,0
CCc1cccc(NC(=O)CN2CCC3(CC2)N=C(c2ccccc2)C(=O)N3)c1,2
CN1C(=O)CC(c2ccccc2)C12CCN(C(=O)C1CCOC1)CC2 (stereo not given),-24
Cc1ccc(C(C)NC(=O)c2cc(CN3CCC(O)CC3)on2)cn1 (stereo not given),1
N#Cc1cccc(-c2ccc3c(c2)[C@@H]2[C@@H](CCN2C(=O)CN2CCOCC2)[C@H](CO)N3)c1,16
CCOC(=O)C(Cc1cc(C(C)=O)ccc1OC(C)C)C(=O)OCC,-3
O=C(c1ccccc1Cl)N1CCN(S(=O)(=O)c2cc3c4c(c2)CCN4C(=O)CC3)CC1,41
CCc1ccc(CN2Cc3ccccc3C3(CCN(CC(=O)N(C)C)CC3)C2)o1,7
COc1ccc(CN2CCCC2c2cc3cccnc3[nH]2)c(OC)c1 (stereo not given),75
COC(=O)CSc1nnc(-c2ccccc2OC)n1-c1ccc(C)cc1,-68
COc1ccc(-c2cc(C(=O)NC(C)c3ccc(N4CCOCC4)cc3)nn2C)cc1 (stereo not given),65

canonical_smiles,Tg IFNy HTS
O=C(C1CC1)N1CCC2(COCc3cnc(NCC4CC4)nc32)C1 (stereo not given),241
Cc1ccc(-c2coc(-c3ccc(NC(=O)Nc4ccccc4C)cc3)n2)c(C)c1,0
COc1ccc2c3c([nH]c2c1)[C@H](CO)N(C(=O)NC(C)C)CC31CN(C(=O)c2ccncc2)C1,112
COc1cccc([C@@H]2CNC[C@H]2c2cc(=O)[nH]c(N3CCn4c(CO)nnc4C3)n2)c1,65
C[C@H]1CCCCO[C@@H](CN(C)C(=O)CCCN(C)C)[C@@H](C)CN([C@@H](C)CO)C(=O)c2cc(NS(=O)(=O)c3ccc(Cl)cc3)ccc2O1,35
CCN(C(=O)CCc1c(C)nn(-c2ccccc2)c1C)C1CCN(C)CC1,-60
CCS(=O)(=O)N1CCC2(CC1)OC(=O)C(C)=C2C(=O)NCCc1ccc(OC)c(OC)c1,11
C[C@H]1OC(O)[C@H](O)[C@H](O)[C@H]1O (stereo not given in full),5
COc1cc(N2CCC3(CC2)CNC(=O)C3)ncn1,6
O=C(Cc1ccc(F)cc1)NCCc1csc(-c2cccc(F)c2)n1,42
COC(=O)CC1C(=O)NCCN1C(=O)c1cc2n(n1)CCN(C(C)C)C2 (stereo not given),2
CC(=O)Oc1ccc2c(=O)c(Oc3ccccc3[N+](=O)[O-])coc2c1,23
COc1ccccc1-n1cc(C(=O)NCc2snnc2C)cn1,47
O=C(c1nc2c(s1)CCCN2CC1CC1)N1CCOCC1,-3
Cc1ccc(S(=O)(=O)N2CCC3(CC2)Nc2ccc(C)c(C)c2-n2cccc23)c(C)c1,30
COc1ccccc1Oc1c(C)oc2c(CN3CCN(CCO)CC3)c(O)ccc2c1=O,-5
CC(C)N(C[C@H]1[C@H](c2ccccc2)[C@@H](CO)N1S(C)(=O)=O)C(=O)CN(C)C,16
O=C(Cn1cnc2ccccc21)N1CC[C@@H](c2ccc3c(c2)OCO3)[C@H](O)C1,16
COc1ccccc1-c1cccc(-c2nc(C(=O)N3CCN(C)CC3)cc3c2[C@H](CCO)N([S@@](=O)C(C)(C)C)C3)c1,54
CCOC[C@H]1CCC[C@]12CN(C(=O)c1ccno1)CCO2,-27
COc1ccc2c(c1)OCC(Cc1ccc(OC)c(O)c1)C2=O (stereo not given),-75*
CSc1ccc(CN(CCO)Cc2ccc3c(C)cc(=O)oc3c2)cc1,75
CC(=O)Nc1cccc(-c2ccc(NCCO)nn2)c1,-7
COc1ccc(OC)c(CNc2nc(-c3nnc(-c4ccc(C)cc4)o3)nc3ccccc23)c1,-42
COCCn1c(C(=O)NCC2CCCO2)cc2c1c1ccccc1n2C(C)C (stereo not given),-16

Random excerpt: five entries already listed, in no set order.
canonical_smiles,Tg IFNy HTS
CN1C(=O)c2cc(NC(=O)c3cnccn3)ccc2OC[C@@H]2O[C@H](CC(=O)NCC3CCCCC3)CC[C@@H]21,-19
Cc1ccc(C2(O)CCN(C(=O)CC3C=CS(=O)(=O)C3)CC2)nc1 (stereo not given),6
Cn1cc(C(=O)[C@@H]2CCc3nc[nH]c3C2)c2ccccc21,9
CCOC[C@H]1CCC[C@]12CN(C(=O)c1ccno1)CCO2,-27
O=C(c1cccnc1-c1cnc2ccccc2c1)N1C[C@H]2CC[C@@H]1C2,0

As a working copy, four of the compounds above:
canonical_smiles,Tg IFNy HTS
CCS(=O)(=O)N1CCC2(CC1)OC(=O)C(C)=C2C(=O)NCCc1ccc(OC)c(OC)c1,11
C[C@H]1OC(O)[C@H](O)[C@H](O)[C@H]1O (stereo not given in full),5
COc1cc(N2CCC3(CC2)CNC(=O)C3)ncn1,6
O=C(Cc1ccc(F)cc1)NCCc1csc(-c2cccc(F)c2)n1,42

(more compounds)
canonical_smiles,Tg IFNy HTS
CCCCCCCCC(=O)Oc1ccc2c(C)cc(=O)oc2c1,-14
CCn1ncc2c1C(COC)N(C(=O)CCc1ccccc1C)CC2 (stereo not given),-7
COc1ccc(-c2nccn2Cc2scnc2-c2ccccc2)cc1O,0
CCN(CC)CC1CCC2(COCCN(C(=O)c3cscn3)C2)O1 (stereo not given),3
OCC1(CCc2ccccc2)CCN(c2nccc(N3CCC(O)C3)n2)CC1 (stereo not given),-13
Cc1ccc(CN(CCN(C)C)C(=O)c2cn(C)c3ccccc23)s1,-1
O=C(CC(c1ccccc1)c1ccco1)N1CCCn2cncc2C1 (stereo not given),-2
COc1cc2cc(CN3CCCC(CO)(CO)C3)c(=O)[nH]c2cc1OC,1
CCC1CN(Cc2cc3ccccc3nc2OC)CCN1C(C)C (stereo not given),4
COc1ccccc1C1CCCN1C(=O)c1cn(-c2ccccc2)nn1 (stereo not given),-3
Cc1nc(-c2ccccc2)sc1CCNC(=O)c1ccccc1Br,i
COc1ccc2[nH]c(I)c(CCNC(C)=O)c2c1,20&12
CCC(C)N(C(=O)C(F)(F)F)C(C(=O)NC1CCCCC1)c1ccncc1 (stereo not given),13
O=C1NC(=O)C(Cc2ccccc2Cl)(C2CCNCC2)N1 (stereo not given),3
CCCn1ccc(C(=O)N2CCCCC2c2nnc(C3CCN(C(=O)CC)CC3)o2)n1 (stereo not given),-12
COc1ccc([C@H]2N(C(=O)CCn3cnc4ccccc43)CCC[C@]23CCC(=O)N3)cc1,-25
CCNC(=O)[C@@H]1[C@@H](CO)[C@@H]2Cn3c(ccc(-c4ccncc4)c3=O)[C@@H]2N1Cc1cc(F)ccc1F,-1
CN(C)C(=O)Cc1nnc2n1CCN(Cc1ccsc1)C2,-4
CO[C@@H]1CN(C)C(=O)c2cc(NS(=O)(=O)c3ccc(Cl)cc3)ccc2OC[C@H](C)N(C(=O)NC(C)C)C[C@@H]1C,-3

Assay outcomes (PubChem)
